CBX7 AlphaScr = CBX7 inhibition, primary AlphaScreen; O95931; AlphaScreen His6-CBX7 / biotin-H3K27me3 peptide binding; hits give low values; normalised signal (fraction of DMSO) (test concentration not listed); actives 1.1% (n = 66,000); AID 1224903; in the data active = normalised signal below about 0.5;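 also: 100 nL library stock added to about 20 µL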
Target sequence (O95931 whole entry, looked up): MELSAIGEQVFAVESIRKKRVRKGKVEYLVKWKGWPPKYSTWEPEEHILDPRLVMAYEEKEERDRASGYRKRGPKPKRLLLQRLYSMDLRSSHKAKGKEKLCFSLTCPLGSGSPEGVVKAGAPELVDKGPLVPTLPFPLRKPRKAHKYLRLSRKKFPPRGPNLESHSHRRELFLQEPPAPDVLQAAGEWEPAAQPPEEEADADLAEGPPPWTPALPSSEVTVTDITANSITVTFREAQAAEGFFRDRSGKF
CBX7 AlphaScr z-score = further read-out of CBX7 AlphaScr, marked with its call; z-score; measured here: z-score of CBX7 signal; some inactives read as strong as hits; reference of the scale not given here;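 same signal on another scale; lower means less binding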
* marks the source's active call; other numbers are inactive results; & = joins results of further samples.

SMILES | CBX7 AlphaScr | CBX7 AlphaScr z-score
O=C(Nc1ccc(Oc2ccccc2)cc1)c1cccc(NC2=NC3CS(=O)(=O)CC3S2)c1 (configuration not stated) | 1 | 0.0358
NS(=O)(=O)c1ccc(CCNC(=O)c2ccc(C#Cc3ccccc3)cc2)cc1 | 0.881 | -1.84
Cc1ccc(Nc2ncc(C(=O)N3CCN(c4ccccc4)CC3)c3ccccc23)cc1Cl | 1.01 | 0.371
CCc1ccc2c(c1)c(=O)c(S(=O)(=O)c1ccc(Cl)cc1)cn2CC(=O)Nc1ccc(C)cc1 | 1.08 | 2.65
Cc1ccc(-c2nc3ncccc3o2)cc1NC(=O)COc1ccccc1 | 1.16 | 3.38
O=C(NCc1cccs1)c1cc2n(n1)C(C(F)(F)F)CC(c1cccs1)N2 (configuration not stated) | 1.03 | 0.546
CC(C)c1ccc(S(=O)(=O)Nc2ccc3oc4c(c3c2)C(=O)CC(C)(C)C4)cc1 | 1.12 | 0.8
Cn1cc(CCCC(=O)NC2CCCCCCC2)c2ccccc21 | 0.955 | -0.352
COc1cc2c(cc1OC)C(c1ccc(C)cc1)CC(=O)N2 (configuration not stated) | 1.1 | 0.388
O=C(Cn1nc(Cc2ccncc2)c2ccccc2c1=O)Nc1cccnc1 | 1.11 | 3.5
CCOC(=O)c1cc(-c2ccc(OC)cc2)nc2ccccc12 | 1.35 | 5.97
Cc1ccccc1-n1nc2c(c1NC(=O)c1cccc(F)c1)CS(=O)(=O)C2 | 1.12 | 2.29
O=C(NCCc1ccc(Cl)cc1)C1CCCN(c2nnc(-n3cccc3)s2)C1 (configuration not stated) | 1.1 | 3.29
Cc1ccc2c(c1)c1c(n2CC(O)CNCC2CCCO2)CCCC1 (configuration not stated) | 0.86 | -4.54
O=C(N1CCN(c2ccccn2)CC1)C1(S(=O)(=O)c2ccc(Cl)cc2)CC1 | 0.979 | -0.547
COc1cc(OC)cc(C(=O)Nc2ccc3oc(-c4ccc(C(C)(C)C)cc4)nc3c2)c1 | 0.942 | -0.902
Cc1ccc(Nc2cc(C(=O)NC3CCCC3)c3ccccc3n2)c(C)c1 | 0.993 | -0.195
O=C1CCc2cc(S(=O)(=O)N3CCN(C4CCCCC4)CC3)ccc2N1 | 0.973 | -0.603
Cc1ccc(C)c(-n2nnnc2SCC(=O)Nc2ccc(F)cc2)c1 | 1.07 | 0.67
CCOC(=O)c1cnc2c(C(F)(F)F)cccc2c1NCCCN1CCOCC1 | 0.951 | -0.583
COCCCNC(=O)c1ccc2c(c1)N(Cc1ccccc1Cl)C(=O)c1ccccc1S2 | 0.941 | -1.55
O=C(Cn1ncc2ccsc2c1=O)NCCN1CCC(Cc2ccccc2)CC1 | 0.992 | -0.285
CCc1ccc(NC2c3ccccc3C(=O)N2c2ccc(C)cn2)cc1 (configuration not stated) | 0.632 | -4.92
CCC1=Nc2cc(C(=O)N3CCc4ccccc43)ccc2Sc2ccc(C)cc21 | 0.972 | -1.34
O=C(c1cc(-c2ccc(Cl)c(Cl)c2)on1)N1CCCC1 | 1.04 | 1.22
Cc1cc(N2CCN(C)CC2)nc2ccc(NC(=O)CCC(=O)NCCCN3CCCC3)cc12 | 1.06 | 1.04
O=C(Cn1nc(-c2ccccc2)ccc1=O)NC1CCCCCC1 | 1.13 | 3.27
COc1ccc(CCN2C(=O)CC(N3CCN(c4ccccn4)CC3)C2=O)cc1OC (configuration not stated) | 1.02 | 0.211
CC(C)CNC(=O)c1cc(-c2ccc(Cl)cc2)on1 | 1.09 | 0.254
COc1cccc(NS(=O)(=O)c2ccc3c(c2)NC(=O)CC(=O)N3)c1 | 1.03 | 1.11
O=C(O)c1cc2ccccc2cc1Nc1ccnc2cc(Cl)ccc12 | 1.06 | 0.713
CCOC(=O)C1CCCN(C(=O)CCc2c(C)nc3cc(-c4cccc(F)c4)nn3c2C)C1 (configuration not stated) | 0.917 | -1.36
CCc1ccccc1NC(=O)CCc1c(C)nc2cc(-c3ccc(Cl)cc3)nn2c1C | 1.03 | 0.538
c1csc(-c2nc3ncccn3c2Nc2ccc3c(c2)OCCO3)c1 | 0.867 | -0.133
COc1ccc(N2Cc3cccc(C(=O)Nc4ccc(OC)cc4OC)c3C2=O)cc1 | 0.983 | -0.474
Cc1ccc2c(c1)C(c1ccc(F)cc1)N(C(=O)c1cccs1)CC(=O)N2 (configuration not stated) | 0.809 | -3.47
CCCCN(C)C(=O)c1cccc(NC2=NC3CS(=O)(=O)CC3S2)c1 (configuration not stated) | 0.755 | -2.67
COc1ccc(C2C(C(=O)Nc3cccc(C)n3)=C(C)NC3=C2C(=O)CCC3)cc1 (configuration not stated) | 1.05 | 0.113
CCOC(=O)c1cnc2c(OC)cccc2c1Nc1ccc(C)cc1Br | 0.85 | -2.6
CCc1ccc(NC(=O)c2c(-c3ccccc3)noc2C)cc1 | 1.03 | 0.184
CC1CCCC(NC(=O)C2c3ccccc3C(=O)N2Cc2ccc(F)cc2Cl)C1C (configuration not stated) | 1.04 | 0.752
Cc1ccccc1NC(=O)c1cc(C(=O)Nc2ccccc2C)n(C)n1 | 1.01 | 0.146
CC(NC(=O)c1csc2c1CCCCC2)c1ccccc1 (configuration not stated) | 1.14 | 0.545
COc1ccc(OC)c(C2=NOC(C(=O)NCC(C)C)C2)c1 (configuration not stated) | 1.05 | 1.96
COc1cccc(C(=O)Nc2ccc(-c3nc4ccccc4o3)cc2)c1 | 1.02 | 0.786
Cc1ccc(S(=O)(=O)Nc2ccc3oc4c(c3c2)CC(C)CC4)cc1 (configuration not stated) | 0.851 | -4.16
CCOc1ccc(NS(=O)(=O)c2ccc3c(c2)CCN3C(=O)C2CC2)cc1 | 0.982 | -0.625
Cc1cc(=O)[nH]c(Nc2ccccc2)n1 | 1.27 | 1.96
Cc1ccc(-c2cc(C(=O)Nc3nc(-c4ccc(Cl)c(Cl)c4)cs3)c3ccccc3n2)cc1 | 1.29 | 1.03
O=C(C(=O)N1CCOCC1)c1c(-c2ccccc2)cc2ccccn12 | 1.07 | 2.48
CCOC(=O)c1cnc2c(C)cccc2c1Nc1ccc(OC)cc1OC | 0.967 | -0.714
Cc1cccc(NS(=O)(=O)c2ccc3c(c2)n(C)c(=O)c(=O)n3C)c1 | 1.15 | 1.06
COc1ccc(CNC(=O)c2cnc3ccccn3c2=O)cc1 | 0.848 | -2.16
CCc1ccc(-c2nc(CN3CCC(C(=O)NCC4CCCO4)CC3)c(C)o2)cc1 (configuration not stated) | 0.873 | -0.173
CC1CCN(c2c(NCc3ccc(C(=O)N4CCN(c5ccccc5)CC4)cc3)c(=O)c2=O)CC1 | 0.998 | -0.0955
CCc1ccc(-c2nc3cc(NC(=O)c4ccc(Cl)cc4Cl)ccc3o2)cc1 | 1.04 | 1.96
Cc1nc2ncccn2c1-c1csc(Nc2ccc(S(N)(=O)=O)cc2)n1 | 0.985 | -0.0174
COc1ccc(NC(=O)Cn2nc(-c3ccc(C)cc3)c3ccccc3c2=O)cc1 | 1.02 | 0.469
CCOC(=O)N1CCN(c2c(NCCN3CCCC3)c(=O)c2=O)CC1 | 1.01 | 0.152
O=C(COCc1cc(-c2ccc(F)cc2)on1)Nc1ccc(F)cc1F | 1.02 | 0.193
(listing goes on)
SMILES | CBX7 AlphaScr | CBX7 AlphaScr z-score
O=C1NCCc2c1[nH]c1c(Cl)ccc(Cl)c21 | 1.01 | 0.138
COc1ccc(CCNC(=O)CCc2nc3ccccc3[nH]2)cc1OC | 1.06 | 2.23
COCCCNC(=O)c1cn(C2CCCCC2)c(=O)c2c1c1ccccc1n2C | 1 | 0.0747
CCCNC(=O)Cn1cnc2sc(C(=O)Nc3ccc(F)c(Cl)c3)c(C)c2c1=O | 0.988 | -0.167
CCOc1ccc2nc(N3CCCC(C(=O)NCCCN(C)C4CCCCC4)C3)sc2c1 (configuration not stated) | 1.02 | 0.455
CC1CCCCC1NC(=O)C1CCCN(c2nnc(-n3cccc3)s2)C1 (configuration not stated) | 1.01 | 0.123
COC(=O)c1ccccc1NC(=O)c1c(Cl)ccc(Cl)c1OC | 1.13 | 0.234
O=C(CSc1nnc(CNC(=O)c2c(F)cccc2Cl)o1)Nc1ccccc1C(F)(F)F | 1.03 | 1.27
COc1ccc(OCc2nc3ccccc3n2C)cc1 | 1.02 | 0.567
O=C(COc1ccccc1)Nc1c2c(nn1-c1ccc(F)cc1)CS(=O)(=O)C2 | 0.978 | -0.247
CCCCCN1CCCC1C(=O)Nc1c(C)cc(C)cc1C (configuration not stated) | 1.11 | 1.03
CCOc1ccccc1-c1cc(C(=O)Nc2ccon2)c2ccccc2n1 | 1.13 | 3.94
CCOCCCNC(=O)c1cc2c(s1)-c1ccccc1OC2 | 1.08 | 2.36
CCc1ccc(NC(=O)CN(c2ccc(OC)cc2)S(=O)(=O)c2c(C)noc2C)cc1 | 0.955 | -0.321
COC(=O)c1ccc(NC(=O)CN2CCC(O)(c3ccccc3)CC2)cc1 | 0.957 | -0.859
C(#CC1(N2CCOCC2)CCCC1)c1ccccc1 | 0.898 | -0.234
CCCCNc1cc(C)nc2c(-c3ccc(Cl)cc3)c(C)nn12 | 1.12 | 0.746
Cc1ccc(NC2c3ccccc3C(=O)N2Cc2ccccc2Cl)cc1 (configuration not stated) | 0.831 | -1.63
COc1ccc(-c2nc3cnccn3c2Nc2c(C)cccc2C)cc1 | 1.16 | 1.74
CCOc1ccc(Nc2cc(C(=O)NCCC3=CCCCC3)c3ccccc3n2)cc1 | 1.1 | 2.7

5 compounds drawn at random from the list so far, as already listed:
SMILES | CBX7 AlphaScr | CBX7 AlphaScr z-score
O=C(CSc1nnc(CNC(=O)c2c(F)cccc2Cl)o1)Nc1ccccc1C(F)(F)F | 1.03 | 1.27
CCOc1ccccc1-c1cc(C(=O)Nc2ccon2)c2ccccc2n1 | 1.13 | 3.94
CCOc1ccc(Nc2cc(C(=O)NCCC3=CCCCC3)c3ccccc3n2)cc1 | 1.1 | 2.7
COC(=O)c1ccc(NC(=O)CN2CCC(O)(c3ccccc3)CC2)cc1 | 0.957 | -0.859
CCOc1ccc2nc(N3CCCC(C(=O)NCCCN(C)C4CCCCC4)C3)sc2c1 (configuration not stated) | 1.02 | 0.455

Continuation.
SMILES | CBX7 AlphaScr | CBX7 AlphaScr z-score
Cc1ccc(CN(Cc2ccccn2)C(=O)Nc2c(F)cccc2F)cc1 | 0.96 | -0.0394
COc1ccc(-c2cc(C(=O)NCCN3CCOCC3)c3ccccc3n2)cc1OC | 1.04 | 0.975
COc1cccc(NC(=O)Nc2ccc3c(c2)N(C)C(=O)CS3)c1 | 0.911 | -2.38
O=C(CSc1nc(-c2ccccc2)[nH]c1-c1ccc(F)cc1)NCC1CCCO1 (configuration not stated) | 0.981 | -0.48
Cc1ccc(NC(=O)C2CCCN2S(=O)(=O)c2ccc3c(c2)CCC(=O)N3)cc1Cl (configuration not stated) | 0.854 | -1.83
CCOc1cc2c(cc1OCC)C(c1ccc(Br)cc1)CC(=O)N2 (configuration not stated) | 0.923 | -0.976
O=C(Nc1ccc(-c2nc3ccccc3s2)cc1)c1cccc(F)c1 | 1.03 | 0.304
O=C(CCn1nc(-c2ccc(Cl)cc2)ccc1=O)NCCCN1CCC(Cc2ccccc2)CC1 | 1.04 | 0.708
CCC(=O)N1CCc2cc(S(=O)(=O)N3CCN(c4cccc(OC)c4)CC3)ccc21 | 1.23 | 1.94
CCc1ccc(-n2cc(-c3ccc(Cl)cc3)[nH]c2=O)cc1 | 0.957 | -1.09
Cc1ccc(-n2ncc(C(=O)Nc3ccc(C)cc3C)c2C2CCN(C(=O)OC(C)(C)C)CC2)cc1 | 0.952 | -1.58
Cc1cc(Oc2ccc(C(C)(C)C)cc2)nc(-c2ccccc2O)n1 | 1.26 | 1.2
CCN1CCN(C(c2cccs2)C(C)NC(=O)Cc2ccc(OC)c(OC)c2)CC1 (configuration not stated) | 1.24 | 2.53
c1ccc(OCCSc2nc3ccccc3n2CCOc2ccccc2)cc1 | 1.12 | 1.04
CCc1ccc(Nc2cc(C)c3ccccc3n2)cc1 | 1.78&1.06 | 1.59&2.51
CC(C)C(=O)Nc1nnc(Cc2cccc(Br)c2)s1 | 0.971 | -0.122
CSc1cccc(Nc2cc(C(=O)N(C)Cc3ccccc3)c3ccccc3n2)c1 | 1.25 | 0.246
COc1ccc(CNC(=O)Cn2nc(-c3ccccc3)c3cc(Cl)ccc32)cc1 | 1.09 | 2.38
Cc1ccc(-c2csc(NC(=O)c3ccc(S(=O)(=O)N4CCCCC4)cc3)n2)c(C)c1 | 1.09 | 1.47
COC(=O)c1cc2occc2n1Cc1cccc(Cl)c1 | 0.922 | -2.3
CCCCC(C(=O)Nc1ccccc1C)N1C(=O)c2ccccc2C1=O (configuration not stated) | 1.02 | 0.0473
Cc1cccc(N2CCN(C(=O)CN3C(=O)CC(C)(C)S(=O)(=O)c4ccccc43)CC2C)c1 (configuration not stated) | 0.994 | -0.182
COc1cc2c(C(=O)N3CCCCC3c3cccnc3)cn(CC(C)C)c(=O)c2cc1OC (configuration not stated) | 0.941 | -1.54
Cc1cccc(C)c1NC(=O)C1(N(C)C(=O)Cc2cccs2)CCCCC1 | 1.03 | 0.187
O=C(NCCN1CCN(c2ccccc2)CC1)C1(S(=O)(=O)c2ccc(Cl)cc2)CC1 | 0.842 | -7.52

Some of the entries so far, in markdown.
| smiles | CBX7 AlphaScr | CBX7 AlphaScr z-score |
| --- | --- | --- |
| Cn1cc(CCCC(=O)NC2CCCCCCC2)c2ccccc21 | 0.955 | -0.352 |
| COc1cc2c(cc1OC)C(c1ccc(C)cc1)CC(=O)N2 (configuration not stated) | 1.1 | 0.388 |
| O=C(Cn1nc(Cc2ccncc2)c2ccccc2c1=O)Nc1cccnc1 | 1.11 | 3.5 |
| CCOC(=O)c1cc(-c2ccc(OC)cc2)nc2ccccc12 | 1.35 | 5.97 |
| Cc1ccccc1-n1nc2c(c1NC(=O)c1cccc(F)c1)CS(=O)(=O)C2 | 1.12 | 2.29 |

An excerpt of these results, as a markdown table.
| smiles | CBX7 AlphaScr | CBX7 AlphaScr z-score |
| --- | --- | --- |
| Cc1cccc(C)c1NC(=O)C1(N(C)C(=O)Cc2cccs2)CCCCC1 | 1.03 | 0.187 |
| COc1cc2c(C(=O)N3CCCCC3c3cccnc3)cn(CC(C)C)c(=O)c2cc1OC (configuration not stated) | 0.941 | -1.54 |

Source: PubChem

The list is partial; the hit share may differ from the screen's.
